Lassa entry inh = inhibitors of Lassa virus binding or cell entry; Lassa virus pseudotype entry inhibition, cell reporter; control for the full effect not named in the record; Potency, µM (doses to about 37.9 µM), for inactives: at the top dose activity change, negative = inhibition, usual class: inhibitors; 300,000 tested, 1.2% active; AID 540256; active means well fitted inhibition curve with a large enough effect; inconclusive means small, poorly fitted or top-dose-only effect, or effect the other way; inactive means flat fitted curve, though single readings scatter; tested in HEK293 cells; also: % is scaled to controls: 0 for no effect and ±100 for the full control effect; nearly all actives have a fitted effect of over 50% in size; luciferase read-out
NS1 function inh = influenza NS1 inhibition | S. cerevisiae slowed by influenza A NS1, growth recovery by OD600 | Potency, µM (titrated, usually from 46.1 µM), for inactives: at the top dose activity, positive = more growth | 270,000 tested, 0.4% active; active means well fitted rising curve with a large enough effect; inconclusive means small, poorly fitted or top-dose-only effect; inactive means no such curve, though single readings can be large or run the other way; also: nearly all actives have a fitted effect of over 50% in size
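OD600 was taken as the measure of yeast growth restored by compound in an NS1-expressing S. cerevisiae strain. Cells had been washed out of glucose medium and diluted 1:100 into galactose -URA medium, pH 6.0.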
MARV entry inh = blocks Marburg virus binding to or entry into cells; Marburg virus pseudotyped entry inhibition, cell reporter; control for the full effect not named in the record; about a third of the inactives were read at about 46 µM; Potency, µM (titrated, usually from 37.8 µM), without a hit: top-dose activity change, negative = inhibition, hits mostly inhibitors; 300,000 tested, 1.8% active; active = well fitted inhibition curve with a large enough effect; inconclusive = small, poorly fitted or top-dose-only effect, or effect the other way; inactive = flat fitted curve, though single readings scatter; tested in HEK293 cells; about a fifth of its hits are not listed in these tables; also: % is scaled to controls: 0 for no effect and ±100 for the full control effect; luciferase read-out
StopGo reporter = lowers the luciferase signal of an FMDV 2A StopGo reporter | human cells with a luciferase reporter of 2A StopGo recoding; control for the full effect not named in the record | 410,000 tested, 1.2% active | Potency, µM (titrated, usually from 57.9 µM), for inactives: at the top dose signal change, negative = less light; active = well fitted falling curve with a large enough effect; inconclusive = small, poorly fitted or top-dose-only effect; inactive = no such curve, though single readings can be large or run the other way; tested in HEK293T cells; also: % is scaled to controls: 0 for no effect and ±100 for the full control effect; nearly all actives have a fitted effect of over 45% in size; luciferase light after 4 h
RE007 growth inh = less growth of the S. pombe RE007 Vpr strain | 360,000 tested, 0.21% active | AID 651644 | Potency, µM (doses to about 92.2 µM), for inactives: at the highest dose activity change, negative = less growth | S. pombe RE007 Vpr strain, BacTiter-Glo ATP luminescence, 24 h; control for the full effect not named in the record; active = well fitted falling curve with a large enough effect; inconclusive = small, poorly fitted or top-dose-only effect; inactive = no such curve, though single readings can be large or run the other way;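 also: % is scaled to controls: 0 for no effect and ±100 for the full control effect; nearly all actives have a fitted effect of over 50% in size; the assay follows cell death caused by Vpr and the record does not say whether a fall means rescue or toxicity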
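Fission yeast RE007 carrying one integrated HIV-1 vpr copy, seeded at OD 0.01 in PMG+AL medium with 23 nL pinned compound. Grown 24 h at 30 degrees; viability read by BacTiter-Glo luminescence after 5 min.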
Cruzain inh noDet = cruzain (T. cruzi) inhibition without detergent. 200,000 tested, 2.3% active. purified cruzain, Z-FR-AMC fluorescence, no detergent. Potency, µM, inactives show max response, negative = inhibition, usual class: inhibitors. P25779;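 also: plate controls were enzyme without inhibitor for no effect and buffer without enzyme for full effect; nearly all actives have a fitted effect of over 40% in size; top concentration of the series not given in the record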
Target sequence (P25779 123-467 limits assumed): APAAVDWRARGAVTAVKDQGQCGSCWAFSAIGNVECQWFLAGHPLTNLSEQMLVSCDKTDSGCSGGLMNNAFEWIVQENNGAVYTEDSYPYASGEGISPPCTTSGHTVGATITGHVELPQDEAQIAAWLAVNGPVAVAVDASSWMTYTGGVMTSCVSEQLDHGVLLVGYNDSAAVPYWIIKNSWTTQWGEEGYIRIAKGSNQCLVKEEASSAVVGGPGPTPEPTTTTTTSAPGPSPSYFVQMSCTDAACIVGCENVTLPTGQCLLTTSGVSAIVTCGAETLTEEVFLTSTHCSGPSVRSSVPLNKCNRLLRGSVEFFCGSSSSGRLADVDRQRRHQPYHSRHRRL
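Detergent-free condition (0.00005% Triton X-100) in acetate buffer pH 5.5 with DTT. 1.5 nM enzyme and compound were pre-mixed 15 min, then 2 uM Z-FR-AMC substrate added; reaction progress from fluorescence change between first and third reads (60 s).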
SARS PLP yeast = SARS-CoV PLP inhibition in yeast. 330,000 tested, 0.19% active. S. cerevisiae expressing SARS-CoV PLpro, growth rescue; control for the full effect not named in the record. Potency, µM (series often up to 32.9 µM), inactives show at the highest dose activity, positive = growth rescue; active means well fitted rising curve with a large enough effect; inconclusive means small, poorly fitted or top-dose-only effect; inactive means no such curve, though single readings can be large or run the other way; also: 0% is about no effect; nearly all actives have a fitted effect of over 55% in size; growth read by luminescence after 48 h
Cruzain Triton = blocks cruzain activity in presence of Triton detergent. 200,000 tested, 0.43% active. Potency, µM, inactives show max response, negative = inhibition, most hits filed as inhibitors. purified cruzain, Z-FR-AMC fluorescence, 0.01% Triton;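 also: plate controls were neutral wells for no effect and buffer without enzyme for full effect; nearly all actives have a fitted effect of over 40% in size; top concentration of the series not given in the record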
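In this qHTS format, compounds are incubated with 1.5 nM cruzain for 15 min at room temperature before 2 uM Z-FR-AMC is added. Release of AMC is followed at 360/450 nm, and progress is taken as the 60 s fluorescence difference.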
The depositor's hits bear a star; & = joins results of further samples; [ ] = another dose, or the depositor's remark. Unless noted, calls follow the shape of the dose curve; as a rule, active = well fitted curve in the direction sought with a large enough effect; inconclusive = small, poorly fitted or top-dose-only effect, or another doubt; inactive = no such curve, though single readings can be large; an effect the other way counts as inactive or inconclusive. Potency is read from the fitted curve at half-maximal effect.

How did N#CCSc1nc2ccccc2c(=O)n1-c1ccccc1 do in these assays?
Lassa entry inh: 2%; NS1 function inh: -31%; MARV entry inh: 0%; StopGo reporter: -10%; RE007 growth inh: 1%; Cruzain inh noDet: 3%; SARS PLP yeast: -4%; Cruzain Triton: 2.7%

Results for Cc1ccc(CC(=O)N2CCN(C(=O)c3ccco3)CC2)cc1 ?
MARV entry inh: 5%; StopGo reporter: 2%; RE007 growth inh: 33%; SARS PLP yeast: 1%

What do the screens show for `Cc1ccc(-c2nnn(CC(=O)N(c3ccc(F)cc3)C(C(=O)NC3CCCC3)c3ccncc3)n2)o1` (configuration not stated)?
Lassa entry inh: 16%[46.1 µM]; NS1 function inh: 0%; MARV entry inh: 0%[46.1 µM]; StopGo reporter: -8%; RE007 growth inh: 5%; SARS PLP yeast: 2%

What do the screens show for `CCOC(=O)N1CCN(C(=O)c2cnn3c(C(F)(F)F)cc(-c4cccs4)nc23)CC1`?
Lassa entry inh: 13%[46.1 µM]; NS1 function inh: 3%; MARV entry inh: inconclusive; StopGo reporter: 15%; RE007 growth inh: 7%; SARS PLP yeast: 0%

What do the screens show for `CN1CCN(C(=O)c2cnn(-c3ccccc3)c2NC(=O)c2cccs2)CC1`?
Lassa entry inh: -3%; NS1 function inh: -20%; MARV entry inh: inconclusive; StopGo reporter: 0%; RE007 growth inh: -4%; Cruzain inh noDet: -1%; SARS PLP yeast: 0%; Cruzain Triton: 8.2%

Results for Cc1nnc2ccc(N3CCOCC3)nn12 ?
Lassa entry inh: -1%; NS1 function inh: 8%; MARV entry inh: 8%; StopGo reporter: -21%; RE007 growth inh: 2%; Cruzain inh noDet: -5%; SARS PLP yeast: -12%; Cruzain Triton: 0.1%

What do the screens show for `Cc1nc2ccc(S(=O)(=O)N(C)CC(=O)Nc3ccc(C(C)C)cc3)cc2s1`?
Lassa entry inh: 0%[46.1 µM]; MARV entry inh: -7%[46.1 µM]; StopGo reporter: -2%; Cruzain inh noDet: inconclusive; Cruzain Triton: -0.5%

Results for COc1ccc(-n2cc(CNCC3CCOCC3)c(-c3cccc(F)c3)n2)cc1 ?
NS1 function inh: 3%; StopGo reporter: 12%; RE007 growth inh: -5%; SARS PLP yeast: 0%

What do the screens show for `COCCNC(=S)N1CCC(c2nc(-c3ccc(N(C)C)cc3)no2)CC1`?
Lassa entry inh: -19%; NS1 function inh: -7%; MARV entry inh: -10%; StopGo reporter: -20%; RE007 growth inh: 11%; SARS PLP yeast: 0%

Results for Cc1ccc(S(=O)(=O)n2ccc(OC(=O)c3cccs3)n2)cc1 ?
NS1 function inh: -9%; StopGo reporter: -10%; RE007 growth inh: 5%; SARS PLP yeast: -4%

Results for CC(C)(C)[C@@H]1C=C(C(=O)N2CCN(Cc3ccc4c(c3)OCO4)CC2)O[C@H](OCc2ccc(CO)cc2)C1 ?
NS1 function inh: -12%; StopGo reporter: -16%; RE007 growth inh: 16%; SARS PLP yeast: -3%

How did COc1c(F)c(F)c(C(=O)Nc2cccc(Cl)c2N2CCOCC2)c(F)c1F do in these assays?
Lassa entry inh: inconclusive; NS1 function inh: -5%; MARV entry inh: -27%; StopGo reporter: inconclusive; RE007 growth inh: -13%; Cruzain inh noDet: 1%; Cruzain Triton: 6.5%

How did NS(=O)(=O)c1ccc(CNC(=O)CC23CC4CC(CC(C4)C2)C3)cc1 do in these assays?
Lassa entry inh: -19%; NS1 function inh: 1%; MARV entry inh: 13%; StopGo reporter: -18%; RE007 growth inh: 27%; Cruzain inh noDet: 1%; SARS PLP yeast: 5%; Cruzain Triton: 0.4%

What do the screens show for `Nc1ccc2nc(SCc3ccc([N+](=O)[O-])cc3)sc2c1`?
Lassa entry inh: -15%; NS1 function inh: 1%; MARV entry inh: 21%; StopGo reporter: 14%; RE007 growth inh: 13%; Cruzain inh noDet: -28%; SARS PLP yeast: -6%; Cruzain Triton: -11%

Results for CC(C)C[C@H]1C(=O)N2CCCC2[C@]2(O)O[C@](NC(=O)[C@@H]3C=C4c5cccc6[nH]cc(c56)CC4N(C)C3)(C(C)C)C(=O)N12 (some centres not stated) ?
Lassa entry inh: 0%; NS1 function inh: 30%; MARV entry inh: -14%; StopGo reporter: -13%&-28%; RE007 growth inh: -8%; Cruzain inh noDet: 6%; SARS PLP yeast: -2%; Cruzain Triton: -2.1%&1.1%

Results for Cc1cc(C)c(S(=O)(=O)ON2C(=O)c3ccccc3C2=O)cc1C ?
Lassa entry inh: -28%; NS1 function inh: -25%; MARV entry inh: inconclusive; StopGo reporter: 25µM*; RE007 growth inh: -1%; Cruzain inh noDet: inconclusive; SARS PLP yeast: -6%; Cruzain Triton: inconclusive

Results for COc1ccc(-c2noc(Cn3c(=O)c4ccccc4n(CC(=O)Nc4cccc(OC)c4)c3=O)n2)cc1 ?
Lassa entry inh: 5%[46.1 µM]; StopGo reporter: 0%; Cruzain inh noDet: inconclusive; Cruzain Triton: -3.9%

What do the screens show for `CCSc1nnc(NC(=O)c2nc3nc(C)cc(C)n3n2)s1`?
Lassa entry inh: inconclusive; MARV entry inh: -4%[46.1 µM]; StopGo reporter: 8%; RE007 growth inh: -26%; SARS PLP yeast: 3%

How did C=CCSc1nc2sc(-c3ccccc3)cc2c(=O)n1N do in these assays?
Lassa entry inh: 5%; NS1 function inh: 5%; MARV entry inh: 11%; StopGo reporter: -4%; RE007 growth inh: -10%; Cruzain inh noDet: 32µM*; SARS PLP yeast: -16%; Cruzain Triton: -4.9%

What do the screens show for `CC(NC(=O)c1ccc2c(=O)n3c(nc2c1)CCCCC3)c1ccccc1` (configuration not stated)?
Lassa entry inh: inconclusive; MARV entry inh: inconclusive; StopGo reporter: -17%; RE007 growth inh: 32%; SARS PLP yeast: 3%

Results for Cc1c(NC(=O)Nc2cccc([N+](=O)[O-])c2)c(=O)n(-c2ccccc2)n1C ?
Lassa entry inh: 6%; NS1 function inh: 8%; MARV entry inh: 12%[46.1 µM]; StopGo reporter: -3%; RE007 growth inh: -7%; SARS PLP yeast: -1%

How did CS(=O)(=O)Nc1ccc(C(=O)NCc2ccco2)cc1 do in these assays?
Lassa entry inh: 11%; NS1 function inh: inconclusive; MARV entry inh: 10%; RE007 growth inh: 12%; Cruzain inh noDet: 5%; SARS PLP yeast: 6%; Cruzain Triton: 2.7%

Results for N#CCCN(Cc1cccnc1)C(=S)NC(=O)c1ccccc1 ?
Lassa entry inh: 5%; MARV entry inh: inconclusive; StopGo reporter: 3%; RE007 growth inh: 9%; SARS PLP yeast: 11%

What do the screens show for `O=C(Cc1cccs1)N1CCN=C1SCc1ccccc1Cl`?
Lassa entry inh: -5%; MARV entry inh: -2%[46.1 µM]; StopGo reporter: -6%; RE007 growth inh: -1%; SARS PLP yeast: -2%

What do the screens show for `Cc1ccc(C)c(OCCn2ccnc2)c1`?
NS1 function inh: 3%; StopGo reporter: -13%; RE007 growth inh: 21%; SARS PLP yeast: 1%

How did O=C(CCSCCc1ccccn1)Nc1nccs1 do in these assays?
NS1 function inh: 3%; StopGo reporter: -17%; RE007 growth inh: -5%; Cruzain inh noDet: -11%; SARS PLP yeast: -1%; Cruzain Triton: 0.6%

What do the screens show for `Fc1ccc(Cn2cnc3ccccc32)cc1`?
Lassa entry inh: 20%; NS1 function inh: -17%; MARV entry inh: 27%; StopGo reporter: inconclusive; RE007 growth inh: -3%; Cruzain inh noDet: -2%; SARS PLP yeast: 6%; Cruzain Triton: 3.6%

Results for COC(=O)c1ccc(S(=O)(=O)NCc2ccc(S(N)(=O)=O)cc2)n1C ?
Lassa entry inh: 2%; NS1 function inh: 1%; MARV entry inh: inconclusive; StopGo reporter: -9%; RE007 growth inh: 4%; SARS PLP yeast: 1%

How did CCCc1cc(=O)n2[nH]c(NCc3ccc(OC)c(OC)c3)nc2n1 do in these assays?
Lassa entry inh: 23%[46.1 µM]; MARV entry inh: 6%; StopGo reporter: -3%; RE007 growth inh: 18%; SARS PLP yeast: 0%

What do the screens show for `Cc1nc(CC(=O)Nc2nc(-c3ccccc3)cs2)cs1`?
Lassa entry inh: inconclusive; NS1 function inh: -54%; MARV entry inh: -25%[46.1 µM]; StopGo reporter: -2%; RE007 growth inh: -29%; Cruzain inh noDet: -4%; SARS PLP yeast: -5%; Cruzain Triton: 0.8%

How did COc1ccc(S(=O)(=O)NCC2CCCN(Cc3ccc(O)cc3)C2)cc1 (configuration not stated) do in these assays?
NS1 function inh: 1%; StopGo reporter: 7%; RE007 growth inh: 4%; SARS PLP yeast: 14%

How did Cc1cc(C)n2nc(SCC(=O)NC3CCCCC3)nc2n1 do in these assays?
NS1 function inh: -11%; StopGo reporter: -6%; RE007 growth inh: 3%; SARS PLP yeast: -5%

How did N#Cc1c(N)[nH]c2ccc(Sc3ccccc3)cc12 do in these assays?
Lassa entry inh: inconclusive; MARV entry inh: inconclusive; StopGo reporter: 16%; RE007 growth inh: -3%

How did FC(F)(F)c1cnc(/C=C/Nc2ccccc2Cl)c(Cl)c1 do in these assays?
Lassa entry inh: 4%; NS1 function inh: -2%; MARV entry inh: -14%; StopGo reporter: 16%; RE007 growth inh: -15%; Cruzain inh noDet: -11%; SARS PLP yeast: 1%; Cruzain Triton: 2.8%

Results for COc1ccc(CCNC(=O)c2cc3c(=O)n4ccccc4nc3n(CCCN3CCOCC3)c2=N)cc1OC ?
NS1 function inh: 7%; StopGo reporter: 0%; RE007 growth inh: -13%; SARS PLP yeast: -3%

Quoted at random: 2 entries already listed, in no set order.
How did N#Cc1c(N)[nH]c2ccc(Sc3ccccc3)cc12 do in these assays?
Lassa entry inh: inconclusive; MARV entry inh: inconclusive; StopGo reporter: 16%; RE007 growth inh: -3%

Results for COc1ccc(CCNC(=O)c2cc3c(=O)n4ccccc4nc3n(CCCN3CCOCC3)c2=N)cc1OC ?
NS1 function inh: 7%; StopGo reporter: 0%; RE007 growth inh: -13%; SARS PLP yeast: -3%

Screening results as filed in PubChem BioAssay.
